# AID504770 – E. coli YBA685 growth inhibition, screen for V. cholerae RctB inhibitors. E. coli YBA685 rctB-dependent plasmid, OD600 growth, 3 h; stronger effect = lower value. z-score (concentration not given with the values). hit rate 0.27% among 130,000;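 active means z-score under -2 on both plates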;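 further: wells of about 30 µL received 100 nL stock; score is relative to mean and SD of the test wells; the first replicate is given; strong numbers were not always called active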
# CapD inh – blocks the Bacillus anthracis CapD enzyme | hit rate 0.23% among 140,000 | purified CapD enzyme, fluorescence intensity read-out; stronger effect = lower value; some hits fall short of the stated cut | AID 492967 | z-score (test concentration not listed);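 active means z-score under -4 in either of two replicates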;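 further: stock transfer was 100 nL into about 40 µL; score is relative to mean and spread of the plate; one replicate is shown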
# The depositor's hits bear a star; x = no result given.
SMILES,AID504770,CapD inh
CN(C)CCCN1C(=O)C(=O)/C(=C(/O)c2ccccc2)C1c1ccccc1 (configuration not stated),-1.7,-0.435
COc1ccc2c(c1)c(CC(=O)Nc1ncccc1C)c(C)n2C(=O)c1ccc(Cl)cc1,-0.1,-0.54
Brc1ccc(SCCc2ccncc2)cc1,-0.55,-0.435
C(=N\c1ncccn1)/c1ccncc1,0,0.425
C=CCn1c(SCC(=O)N(C(C)C)C(C)C)nc2scc(-c3ccco3)c2c1=O,-0.25,x
CCn1c(SCC(=O)c2ccccc2)nnc1-c1ccc(OC)cc1,-0.05,x
CCOC(=O)C1CCN(S(=O)(=O)c2ccccc2)CC1,-0.45,x
O=C(O)CCC(=O)CCN1CCCCC1,-0.05,x
O=C1NC2(Cc3ccccc3C2)Nc2ccccc21,1.45,x
CCOC(=O)c1ccccc1NC(=O)Cn1c(=O)n(Cc2ccco2)c(=O)c2ccccc21,1.6,-0.085
CCc1noc(C)c1C(=O)NCc1ccc(C(=O)OC)cc1,-0.8,x
CCOc1c(C)cc(-c2ncccc2O)cc1C,-1.55,x
CCCC(=O)N1C2=C(C(=O)c3ccccc32)C(c2ccc(Cl)cc2)c2c1n(C)c(=O)n(C)c2=O (configuration not stated),x,1.09
COc1nc2ccccc2nc1CCC(=O)N1CCCC1,-0.85,37.7
Cc1ccc(CN2CCC(CNC(=O)Cn3ncc4c([nH]c5ccccc54)c3=O)C2)cc1 (configuration not stated),-0.6,6.5
O=P1(Nc2ccc(F)cc2)COc2ccccc2OC1,-1,0.58
COc1cc(/C=C2\C(=O)NC(=O)N(c3ccc(Br)c(C)c3)C2=O)cc(OC)c1O,x,-0.59
CCCOC(=O)c1ccc(N2C(=O)C3C4c5ccccc5C(c5ccccc54)C3C2=O)cc1 (configuration not stated),x,-0.275
COc1ccc(C(C2=C(O)CC(C)(C)CC2=O)c2c(C)[nH]c3ccccc23)cc1 (configuration not stated),0.8,0.365
CCOc1ccccc1NC(=S)NCc1cccn1C,-0.35,7.46
Fc1ccccc1CSc1nnc2ccc(-c3ccco3)nn12,0.85,x
COc1ccc(CN2C(=O)c3ccc(F)cc3C2=O)cc1,-0.45,0.845
O=C(CCCC(=O)c1ccc(F)cc1)c1ccc(F)cc1,x,-0.08
CCOC(=O)c1c(C)n(C)c2c1cc(OC(=O)c1ccc(C(C)(C)C)cc1)c1ccccc12,x,0.015
Cc1cc(-c2ccc(C)c(S(=O)(=O)N(C)Cc3ccccc3)c2)on1,0.1,0.44
Cc1cc(C)c(C)c(S(=O)(=O)NC2CCCCC2O)c1C (configuration not stated),x,0.11
CCSc1nnc(C2CCCN(CC(=O)Nc3nc(C)cs3)C2)n1C (configuration not stated),-0.05,x
Cc1cc(C(=O)Cn2nnc3ccccc3c2=O)c(C)n1C,-0.25,x
CCOC(=O)N1CCN(c2ccc3ccccc3n2)CC1,-0.5,46.1
Cc1c(Cl)cccc1NC(=O)c1ccc(-n2ccnc2)c([N+](=O)[O-])c1,x,0.115
CSC(=NC1CCCCNC1=O)NC#N (configuration not stated),x,0.69
COc1ccc(C2=NOC(C(=O)N3CCCCC3)C2)cc1 (configuration not stated),-0.75,-0.03
C#CCSc1cccc2cccnc12,1.25,x
CN(C)c1nc(OCC(F)(F)F)nc(N2CCN(C34CC5CC(CC(C5)C3)C4)CC2)n1,x,-0.325
CC(C)(C)c1cc(C(=O)NNC(=O)OCCc2ccc(Cl)cc2Cl)n[nH]1,x,-0.23
CCN(CC)C(=O)O[n+]1ccccc1C(C)C,-0.2,x
O=C(Oc1ccc(N(Cc2cccs2)C2=NS(=O)(=O)c3ccccc32)cc1)c1ccccc1,-0.25,-0.63
Cc1cc(C(=O)CN(CC2CCCO2)C2CCS(=O)(=O)C2)c(C)n1C (configuration not stated),-0.2,x
O=C(CCN1C(=O)/C(=C/c2ccc3c(c2)OCO3)SC1=S)Nc1ccccc1,-0.6,0.405
O=C(CN1CCn2nc(-c3ccccc3)cc2C1=O)N1CCCC1,-0.7,0.91
O=C(Nc1cc(Cl)ccc1Oc1ccc(Br)c2ccccc12)c1cc(Cl)cc(Br)c1O,x,0.005
O=C(CSc1nc2ccccc2[nH]1)Nc1ccc(N2CCOCC2)c(Cl)c1,x,-0.11
CCOC(=O)CCc1n[nH]c(=O)[nH]c1=O,-0.45,-0.035
Cc1noc(C)c1COc1cccc(C(=O)NC2CCCCCC2)c1,-0.55,x
O=C(Cn1cc(/C=N/NC(=O)c2ccc(Oc3ccc(O)cc3)cc2)c2ccccc21)NCc1ccco1,-0.35,x
COc1cc2c(cc1NC(=O)CSc1nnc(C)s1)oc1ccccc12,x,0.32
O=S(=O)(c1ccc(OCC(O)CNC2CC2)c(Cl)c1)N1CCOCC1 (configuration not stated),0.4,x
COc1ccc(CCNC(=O)c2c(C)cc(=O)oc2C)cc1OC,-0.25,0.425
COC(=O)c1ccc(S(=O)(=O)NN2CCOCC2)n1C,-0.85,-0.185
CSc1ncccc1C(=O)NCc1ccc(F)cc1,-0.35,0.465

# More entries follow:
SMILES,AID504770,CapD inh
Cc1noc(C)c1CSc1ncccc1C(=O)Nc1ccnn1C1CCCC1,-0.35,x
COc1ccc2nc(/C(C)=N/O)sc2c1,0.7,-0.22
COc1ccc(OCC(O)CC(=O)O)cc1 (configuration not stated),1.5,x
Cc1nc2cc(Nc3ccncc3)ccc2s1,0.1,-0.82
O=C(Nc1ncc(S(=O)(=O)c2ccc([N+](=O)[O-])cc2)s1)c1ccc(S(=O)(=O)N2CCc3ccccc32)cc1,x,-0.41
COC(=O)c1cc(NC(=O)CN2C(=O)c3ccccc3C2=O)cc(C(=O)OC)c1,-0.15,0.195
COc1ccc(C(=O)CSC2=C(C#N)C(c3cccs3)CC(=O)N2)cc1 (configuration not stated),-1,-0.675
Cc1ccc(N=Cc2ccc3ncccc3c2)c(Br)c1,-0.35,-0.26
CCCc1ccc(C(=O)N2CCOCC2)cc1,-0.5,0.015
COc1cccc2cc(/C(C)=N/NC(=O)c3ccc(C(F)(F)F)cc3)oc12,x,-0.425

# Compound profiles, from the list above.
# COc1ccc(OCC(O)CC(=O)O)cc1 (configuration not stated) as listed: AID504770: 1.5; CapD inh: x
# COc1ccc2nc(/C(C)=N/O)sc2c1 as listed: AID504770: 0.7; CapD inh: -0.22
# COc1ccc(C(=O)CSC2=C(C#N)C(c3cccs3)CC(=O)N2)cc1 (configuration not stated) as listed: AID504770: -1; CapD inh: -0.675

# Further structures
SMILES,AID504770,CapD inh
CCOc1nc(NC2CCCC2)nc(N2CCC(C)CC2)n1,-0.05,0.23
N#Cc1cc(-c2ccccc2)oc1NC(=O)c1cccc(Cl)c1Cl,x,-0.105
CC(=O)N(c1ccccc1)C1CC(C)N(C(=O)C(C)C)c2ccccc21 (configuration not stated),-1,-0.125
CC(C)(C)c1ccc(-c2[nH]ncc2-c2ccncc2)cc1,x,-0.415
COc1ccccc1/C=C/CN1CCN(Cc2ccccc2)CC1,0.85,0.315
OC(Cn1cnc(-c2ccccc2)c1-c1ccccc1)Cn1c2ccc(Cl)cc2c2cc(Cl)ccc21 (configuration not stated),x,0.35
CCCN1CCN(C(=O)c2c(C)nn(-c3ccccc3)c2Cl)CC1,-1.3,x
O=C(NCCS(=O)(=O)Cc1cc2cccc3c2n(c1=O)CCC3)c1ccc(C(F)(F)F)cc1,x,-0.27
CC1(C)C(c2ccccc2)=[N+]([O-])CN1O,-0.2,-0.13
CCN1CCN(C(c2ccccc2)c2sc3ncnn3c2O)CC1 (configuration not stated),-0.35,0.07
CCOC(=O)C1=NN(C(=O)c2cccc(Cl)c2)C(O)(c2ccc(Cl)cc2)C1 (configuration not stated),x,-1.64
CC(C)(C)C(=O)Nc1c(Cl)c(C2CC2)nn1-c1ccccc1,1.85,-0.095
CCCCN(C)C(=O)C1CCN(Cc2ccc(OCC)cc2)CC1,-0.15,0.31
O=C(ON1C(=O)c2ccccc2C1=O)c1ccc(NC(=O)c2ccco2)cc1,-0.95,1.02
O=C(O)c1c2c(nc3ccccc13)CCCC2,-0.75,0.36
CC(=O)Nc1nc(Cn2nc(C(=O)O)c3ccccc3c2=O)cs1,0.25,x
O=C(CN1CCN(S(=O)(=O)c2ccccc2)CC1)Nc1ccc2c(c1)CCC2,0.5,x
CC1(C)OC(=O)C(=CNc2ccccc2F)C(=O)O1,-1.1,-1.27
CCN(CC)C(=O)CCCn1nc(C)n2c(cc3sccc32)c1=O,-0.3,-0.25
CCc1nc2ccccc2c2c1C(=O)N(CCc1ccc(O)cc1)C2=O,x,0.02
COc1cc(C(=O)O)c(N)c(OC)c1OC,x,93.3
O=C(CN1CCOCC1)Nc1scc(-c2ccccc2)c1C(=O)N1CCOCC1,-0.6,x
Cc1ccc(NC(=O)COC(=O)c2ccc[nH]c2=O)c(S(=O)(=O)N2CCOCC2)c1,0.1,x
Cc1cc(-c2nc(-c3ccc(Cl)cc3)cs2)no1,3.7,9.12
Cc1ccc2c(c1)-c1onc(C(=O)N3CCCCC3)c1CO2,-0.2,2.23
COc1ccc(NC(=O)CN2CCN(S(=O)(=O)c3cccs3)CC2)cc1Cl,-0.25,x
O=[N+]([O-])c1ccc(-c2csc(-c3cccnc3)n2)cc1,x,-0.9
Cc1ccc(S(=O)(=O)NC(=O)NCC2CCCO2)cc1 (configuration not stated),-0.6,x
O=C(NCCc1ccccc1)C1C2C=CC3(CN(Cc4cccs4)C(=O)C13)O2 (configuration not stated),0.25,0.71
CCc1nn(CC(=O)N2CCCCCC2)c(=O)c2cc3sccc3n12,1,0.095
CN(C)/C=C1\C(=O)N(C)N=C1c1ccccc1O,-0.2,-1.31
COC(=O)c1c(NC(=O)CC2Sc3ccccc3NC2=O)sc2c1CCCC2 (configuration not stated),0.1,0.295
CC1=C(C(=O)OCC2CCCO2)C(c2coc3ccccc3c2=O)C2=C(CC(c3cccs3)CC2=O)N1 (configuration not stated),x,0.065
Cc1nc(NCc2ccco2)[nH]c(=O)c1CCC(C)C,-0.05,0.605
CS(=O)(=O)c1ccccc1C(=O)Nc1cccc2ncccc12,-0.55,x
O=C1CSCC(=O)N1Cc1ccc(Cl)c(Cl)c1,-0.5,-0.035
CCOC(=O)C1=C(CSc2nc(C)cc(C)c2C(N)=O)OC(N)=C(C#N)C1c1cccs1 (configuration not stated),x,-0.135
COc1cc(OC)c2c(c1)ncc1c(C)nn(-c3ccccc3)c12,-0.95,0.2
Cc1c2n(c3ccccc13)C/C(=C\c1ccccc1)C2=O,2.3,0.07
CNc1nc2c(c(=O)n(C)c(=O)n2C)n1CC(O)COc1ccccc1C (configuration not stated),-2.65,-0.715

# Reformatted: entries from further up.
# Every second line gives: AID504770	CapD inh
- COc1ccc2nc(/C(C)=N/O)sc2c1
    0.7	-0.22
- CC(C)(C)c1cc(C(=O)NNC(=O)OCCc2ccc(Cl)cc2Cl)n[nH]1
    x	-0.23
- C(=N\c1ncccn1)/c1ccncc1
    0	0.425
- O=S(=O)(c1ccc(OCC(O)CNC2CC2)c(Cl)c1)N1CCOCC1 (configuration not stated)
    0.4	x

# Another view of part of the listing above.
SMILES	AID504770	CapD inh
CS(=O)(=O)c1ccccc1C(=O)Nc1cccc2ncccc12	-0.55	x
Cc1nc(NCc2ccco2)[nH]c(=O)c1CCC(C)C	-0.05	0.605

# (cont.)
SMILES,AID504770,CapD inh
CCOC(=O)COc1ccc(-c2nccc(-c3ccc(F)cc3)n2)cc1,x,4.2
COc1ccc(NC(=O)/C=C/C(=O)O)cc1OC,-0.2,-1.42
CCCn1c(SCC(=O)NCCc2ccccc2)nc2c(oc3ccccc32)c1=O,-0.6,x
COc1ccc(C2=NN3C(C2)c2cc(Cl)ccc2OC3c2cc(OC)c(OC)c(OC)c2)cc1 (configuration not stated),x,-0.325
Cc1nnc(SCC(=O)Nc2ccc(-c3nc4ccc(NC(=O)CSc5nnc(C)s5)cc4[nH]3)cc2)s1,x,3.49
CC1(C)Cc2c(sc3[nH]c(=S)[nH]c(=S)c23)CO1,x,-0.145
COc1ccc2oc(C(C)=O)c(N)c2c1,x,28.8
Cc1ccc(OCC(O)CN)c(C)c1 (configuration not stated),-0.75,0.1
CCOC(=O)C1C(=O)CC(=O)C(C(=O)OCC)C1c1ccccc1 (configuration not stated),0.1,0.235
Cc1nn(-c2ccccc2)c2nc(-c3cccnc3)cc(C(=O)NNC3=NCCC3)c12,-0.95,x
O=C(O)Cn1ccccc1=O,1.7,x
Cc1ccc2c(N)c(C(N)=O)sc2n1,0.85,-0.405
O=C1CCC(C(=O)NCc2ccccc2)N1 (configuration not stated),-0.45,x
N#Cc1c(Sc2ccccc2)ncc2cc3ccccc3nc12,-0.6,0.015
O=c1c(-c2cccc(Cl)c2)c(C(F)(F)F)oc2c(CN3CCOCC3)c(O)ccc12,x,0.165
O=C(COc1ncnc2sccc12)NC(=O)NCc1ccco1,-0.55,x
COC(=O)/C(=C\Nc1ccc(Cl)cc1)c1ncc(C(F)(F)F)cc1Cl,x,0.635
CSc1ccc(-c2nc(CSCC(=O)N3CCCC3)c(C)o2)cc1,-0.65,0.335
COc1ccc(C(=O)Cn2c(C(F)(F)F)nc3ccccc32)cc1,-1.25,-0.075
COC(=O)c1cc(C(=O)OC)cc(-n2c(/C=C\c3ccc(F)cc3)nc3ccccc3c2=O)c1,x,0.005
CCOc1ccc2nc(NCCNC(=S)NC)c(C#N)cc2c1,-0.25,x
COc1ccc2[nH]c3c(c2c1)CCn1c-3nc2sc3c(c2c1=O)CCCCC3,x,1.88
Cc1ccc(N2CC(C(=O)N3CCC(C(=O)Nc4cccnc4)CC3)CC2=O)cc1 (configuration not stated),-0.45,x
CN(C)C(=O)Oc1ccnc(SCc2ccc(Cl)cc2Cl)n1,1.2,0.215
COc1ccc(-c2noc(CSCC(=O)Nc3ccc(Br)cc3C)n2)cc1OC,-0.1,0.68
O=S(=O)(NNc1ncnc2sccc12)c1ccc(Cl)cc1,1.15,-0.86
C=C(C)COc1ccc2c(CCCC)cc(=O)oc2c1,0,39.2

# Screening data (PubChem)

# This is a random part of the collection; 0.37% or so of the library scored in one or more.
